Compound activity: PubChem BioAssay, several laboratories
eIF4H FP inh: inhibitors of RNA binding by human eIF4H. inhibition, % at 35 µM. eIF4H fluorescence polarization binding assay. actives 0.94% (n = 290,000). Q15056;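 active means 50% or more with normal probe brightness, or confirmed in later tests; inconclusive means above 50% with abnormal brightness, or retests that disagree; inactive means below 50% or failed in later tests; about a fifth of its hits are not listed in these tables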;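 further: calls also rest on retests at 20 µM and on dose response follow-up; 0% = protein and probe with vehicle and 100% = probe without protein; strong numbers were not always called active; many hits fall short of the cut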
MT1-MMP act inh: MT1-MMP (human) activation inhibition; P50281; HT1080 RFP-PRO-GFP cells, GFP/RFP ratio fluorescence, overnight; percent of plate control window, DMSO zero; GFP/RFP ratio change, % at 20 µM; actives 0.061% (n = 360,000); AID 651647;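 active means GFP/RFP ratio change of at least 30% with cell ATP level not reduced by more than half and red fluorescence within 50% of control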; further: strong numbers were not always called active
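Material: RFP-PRO-GFP reporter HT1080 cells. Dosing: single-point 20 µM compound, 1% DMSO. Controls: DMSO and RFP-L50D-GFP cell wells. Timing: cells overnight before dosing, compound overnight, 37 °C, 5% CO2. Measure: GFP/RFP fluorescence ratio.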
HIV Env fusion: blocks HIV Env-driven cell-cell fusion; inhibition, % at 12.3 µM; AID 651610; actives 1.1% (n = 360,000); HeLa-JRFL Env/CEM21 cell fusion, luciferase;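 active means mean replicate inhibition score of at least 50 and every replicate individually at or above 50; inconclusive means only one of the two criteria met; inactive means mean below 50 and not all replicates reaching 50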;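 further: 0% = plate neutral controls and 100% = maraviroc near 300 nM; one replicate is shown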
PABP FP inh: PABP-poly(A) binding inhibition | P11940 | PABP-poly(A) RNA binding, fluorescence polarization | inhibition, % at 35 µM | actives 1% (n = 290,000) | AID 2014;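 active means 50% or more with normal probe brightness, or confirmed in later tests; inconclusive means above 50% with abnormal brightness, or retests that disagree; inactive means below 50% or failed in later tests; about a fifth of its hits are not listed in these tables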;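 further: calls also rest on retests at 20 µM and on dose response follow-up; controls were probe without protein and protein plus probe with vehicle; some compounds called inactive have numbers as strong as hits; many hits fall short of the cut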
Target sequence (P11940 whole entry, looked up): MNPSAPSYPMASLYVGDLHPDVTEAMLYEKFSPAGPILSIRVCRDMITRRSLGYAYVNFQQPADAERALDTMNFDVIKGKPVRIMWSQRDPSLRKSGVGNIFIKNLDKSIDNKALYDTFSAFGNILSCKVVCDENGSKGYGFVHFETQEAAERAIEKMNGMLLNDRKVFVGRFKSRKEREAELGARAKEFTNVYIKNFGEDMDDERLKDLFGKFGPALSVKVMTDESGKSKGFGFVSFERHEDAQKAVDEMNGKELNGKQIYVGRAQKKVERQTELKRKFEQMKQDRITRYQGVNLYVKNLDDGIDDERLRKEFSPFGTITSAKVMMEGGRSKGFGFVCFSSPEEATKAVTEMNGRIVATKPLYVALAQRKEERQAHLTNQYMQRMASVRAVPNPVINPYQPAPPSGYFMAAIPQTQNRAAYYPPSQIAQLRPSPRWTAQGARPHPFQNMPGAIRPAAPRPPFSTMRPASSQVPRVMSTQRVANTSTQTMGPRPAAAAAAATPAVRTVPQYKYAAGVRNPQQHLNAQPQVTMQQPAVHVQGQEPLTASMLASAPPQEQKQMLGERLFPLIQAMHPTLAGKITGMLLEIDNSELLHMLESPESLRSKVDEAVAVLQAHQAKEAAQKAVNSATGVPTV
CSC inhib: blocks cancer stem cells. cancer stem cell-like cells viability, luminescence. inhibition, % at 7.5 µM. actives 1.1% (n = 300,000);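 active means mean at 75% or more and at least half the replicates too; inconclusive means mean and replicates disagree; tested in HMLE shEcad cells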;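 further: 0% = median of negative and 100% = median of positive control wells; the first replicate is given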
UUG fidelity: alters start codon recognition fidelity in yeast | actives 0.13% (n = 350,000) | S. cerevisiae UUG-firefly luciferase reporter, luminescence/redox ratio | activity score, % at 18.7 µM;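 active means replicate mean at a twofold rise or more, about +100% in these data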;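 further: firefly luciferase made from a UUG start codon reports start codon fidelity; reporter light over untreated wells divided by growth signal over untreated wells; some hits fall short of that in this replicate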
Rce1 inh: blocks yeast Ras-converting enzyme. Q03530. yeast membranes, quenched prenylated peptide cleavage fluorescence. calls only. actives 0.27% (n = 290,000);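 active means fall in fluorescence gain of 50% or more versus controls, with final raw signal at or below 3038400; inconclusive means same 50% fall but final raw signal above 3038400; inactive means fall in fluorescence gain under 50%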;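 further: plate controls were neutral control wells for no effect and wells lacking membranes for full effect; tested at 10 µM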
Target sequence (Q03530 whole entry, looked up): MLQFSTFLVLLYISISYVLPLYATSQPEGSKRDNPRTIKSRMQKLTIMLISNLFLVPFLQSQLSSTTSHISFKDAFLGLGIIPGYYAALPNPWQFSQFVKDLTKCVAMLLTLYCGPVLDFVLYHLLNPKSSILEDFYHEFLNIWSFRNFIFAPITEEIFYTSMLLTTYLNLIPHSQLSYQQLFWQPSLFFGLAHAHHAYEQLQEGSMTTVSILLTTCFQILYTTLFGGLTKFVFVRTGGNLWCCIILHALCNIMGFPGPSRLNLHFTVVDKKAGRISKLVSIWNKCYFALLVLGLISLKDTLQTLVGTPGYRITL
MT1-MMP act inh RFP: also measured in MT1-MMP act inh; calls as there; RFP signal change, %; measured here: RFP expression control read;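 0 = vehicle wells; hits needed this value within 50% of zero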
* = called active by the depositor; i = inactive; ? = inconclusive; · = no result given; & = joins results of further samples.

canonical_smiles	HIV Env fusion	UUG fidelity	MT1-MMP act inh	CSC inhib	PABP FP inh	MT1-MMP act inh RFP	Rce1 inh	eIF4H FP inh
CN(Cc1ccccc1)C1CCN(Cc2ccccc2[N+](=O)[O-])CC1	-10	1	2	30	5	0	i	23
Cc1nc2ccc(C(=O)N3CCSCC3)cc2s1	-111	5	-1	0	2	5	i	-11
C=C1CCN([C@@H](CC(C)C)C(=O)NCc2ccc(Cl)c(Cl)c2)S(=O)(=O)c2ccccc21	35	-4	-7	·	·	-10	i	·
CC(C)c1ccc2c(c1)c(SC(C)(C)C)c(CC(C)(C)C(=O)O)n2Cc1ccc(Cl)cc1	-20	-19	-2	102*	6	-17	i	46
Cc1c(NC(=O)NCc2ccccc2)c(=O)n(-c2ccccc2)n1C	17	-24	-4	1	-9	0	i	0
CSc1ccccc1OCc1cc(C(=O)N2CCN(c3ccccc3)CC2C)no1 (centres undefined)	-72	8	-1	-8	3	-10	i	-2
COc1ccc(CCC(=O)NC(C)c2ccccc2)cc1OC (centres undefined)	-2	-13	-8	8	4	-2	i	-2
Cc1cc(Cl)ccc1OCC(=O)N1CC(C)CC(C)C1 (centres undefined)	-37	10	2	1	0	0	i	-8
O=C(NC(=S)NC1CCS(=O)(=O)C1)c1cccs1 (centres undefined)	11	·	-1	·	0	2	i	4
CCC1(CC)NC(=O)N(CC(=O)OCc2nc3cc(C(=O)OC)ccc3c(=O)[nH]2)C1=O	1	-12	0	·	·	2	·	·
COc1ccc2c(c1OC)C(=O)O[C@@H]2[C@H]1c2c(cc3c(c2OC)OCO3)CCN1C	·	-17	0	7	4	3	·	4
O=C(NCCO)c1ccc(-c2cnc3cccnn23)cc1	6	-9	-7	·	·	-6	·	·
CN(C)c1ccc(NC(=S)NC23CC4CC(CC(C4)C2)C3)cc1	-1	-31	4	·	6	-8	i	5
O=C1COc2ccc(S(=O)(=O)NCc3ccccc3)cc2N1	-8	-14	4	10	2	5	i	3
[O-]/C(=C(\C(=S)Nc1cccc2ccccc12)[n+]1ccccc1)c1ccc(Cl)s1	27	·	-8	32	-5	2	i	23
CC(C)Oc1ccc(N2CC(C(=O)Nc3ccccc3C(=O)NC3CC3)CC2=O)cc1 (centres undefined)	10	·	0	-10	·	-1	i	·
O=C(COc1ccccc1C(=O)NCc1ccncc1)Nc1ccc(Br)cc1	0	·	-3	17	4	-2	i	-2
CCOC(=O)C1(CCCc2ccccc2)CCN(C(=O)CCOC)CC1	5	11	-1	-7	-5	2	i	-1
Cc1cc(Cl)ccc1NNC(=O)c1cccs1	6	-12	-4	43	5	5	i	-19
Cc1nc2ccc3nc(NC(=O)c4ccc5c(c4)OCCO5)sc3c2s1	·	-11	-1	-7	1	4	i	-41

Some entries already given, limited to Rce1 inh, PABP FP inh and CSC inhib.
Structure	Rce1 inh	PABP FP inh	CSC inhib
O=C(COc1ccccc1C(=O)NCc1ccncc1)Nc1ccc(Br)cc1	i	4	17
O=C1COc2ccc(S(=O)(=O)NCc3ccccc3)cc2N1	i	2	10

Continued.
canonical_smiles	HIV Env fusion	UUG fidelity	MT1-MMP act inh	CSC inhib	PABP FP inh	MT1-MMP act inh RFP	Rce1 inh	eIF4H FP inh
CC1CCCCC1NC(=O)/C(C#N)=C/c1ccc2c(c1)OCCO2 (centres undefined)	·	·	·	15	10	·	i	3
NC(=O)CC(NC(=O)Cc1cccc2ccccc12)c1ccc(N2CCC(N3CCCC3)CC2)c([N+](=O)[O-])c1 (centres undefined)	13	8	4	7	2	8	i	-4
Cc1ccc(Cn2c(N3CCCCCC3)nc3c2c(=O)[nH]c(=O)n3C)cc1	·	-17	-8	-10	-9	-6	·	3
COc1ccc(C(C)(C)C)cc1NC(=O)CCNC(=O)c1ccco1	27	0	4	-17	3	2	i	3
CN(Cc1ccccc1)C(=O)c1cccc(NC(=O)Cc2cccc(NC(=O)C3CCN(C(=O)C4CCC4)CC3)c2)c1	-18	-5	0	·	·	-5	·	·
Cc1cccc(SCC(=O)Nc2ccc3c(c2)OCCO3)c1	-50	9	4	2	2	0	i	-1
Cc1ccc(S(=O)(=O)N2CC(=O)Nc3ccccc32)c(C)c1NS(C)(=O)=O	0	-16	2	-10	-2	2	i	0
CC(C)(C)n1nnnc1C(c1cccs1)N1CCN(Cc2ccc3c(c2)OCO3)CC1 (centres undefined)	-78	-13	-6	-12	35	6	i	-4
COc1ccc(NC(=O)c2ccccc2N(Cc2ccccc2)S(C)(=O)=O)cc1OC	5	11	-3	-4	2	-6	i	-3
Cc1onc(-c2c(F)cccc2Cl)c1C(=O)NCc1cccs1	-1	-10	2	-21	-9	-1	i	-19

Compound profiles, as listed above. Order of values: HIV Env fusion	UUG fidelity	MT1-MMP act inh	CSC inhib	PABP FP inh	MT1-MMP act inh RFP	Rce1 inh	eIF4H FP inh
Cc1ccc(Cn2c(N3CCCCCC3)nc3c2c(=O)[nH]c(=O)n3C)cc1 is listed with ·	-17	-8	-10	-9	-6	·	3
Cc1cccc(SCC(=O)Nc2ccc3c(c2)OCCO3)c1 is listed with -50	9	4	2	2	0	i	-1

Additional compounds follow.
canonical_smiles	HIV Env fusion	UUG fidelity	MT1-MMP act inh	CSC inhib	PABP FP inh	MT1-MMP act inh RFP	Rce1 inh	eIF4H FP inh
O=C1CCCC(O)=C1N=Nc1ccc(Cl)c(Cl)c1	3	-14	1	8	-7	-3	i	0
O=C(CC1C(=O)NCCN1Cc1cccc(F)c1)NCCCCCN1CCOCC1 (centres undefined)	-6	-5	-4	-28	12	3	i	17
CC(=O)Oc1ccccc1C(=O)NC(C)CCc1ccccc1 (centres undefined)	-6	-8	5	16	-5	-5	i	3
CCOc1cccc(CNCc2cccnc2)c1OCc1ccccc1	7	·	-3	-3	4	-1	i	13
COc1ccc(-c2cnc3c(NC=O)cc(-c4ccoc4)cn23)cc1OC	i	-26	-13	·	·	-2	·	·
COc1ccc(C(=O)NC(C)c2nnc(SCC(=O)NC3CCCC3)n2C)cc1 (centres undefined)	-9	-14	-2	-4	-1	3	i	1
CCN(CC(=O)NCc1cccs1)c1ccc(S(=O)(=O)N2CCN(C)CC2)cn1	-4	-10	0	-18	6	3	i	-10
O=C(C1CCCO1)N1CCN(C(=S)Nc2ccccc2F)CC1 (centres undefined)	10	·	3	-7	13	7	i	3
COc1ccccc1N1CCN(/N=C/c2ccc(OC)c(OC)c2OC)CC1	-2	3	6	-14	-13	0	i	1
Cc1cc(Br)cc(Cl)c1OCC(=O)NC(=O)NCc1ccccc1	-97	·	-2	-9	-14	1	i	-7
Cn1nccc1C(=O)Nc1sc2c(c1C(N)=O)CCCC2	-25	·	-3	·	6	-3	i	0
COc1cccc(CCNC(=O)C2CCC(=O)N(C3CC3)C2)c1OC (centres undefined)	-21	-4	3	·	6	0	i	-3
COc1ccc(N=C2SCC(=O)N2CCc2ccc(OC)c(OC)c2)cc1	23	·	-6	-1	1	-24	i	-2
CCCCS(=O)(=O)N1CCCC(C(=O)N2CCOCC2)C1 (centres undefined)	-2	-6	-1	11	5	-3	i	-1
CC(C)Nc1nc(NC(C)C)nc(NS(=O)(=O)c2ccc(N)cc2)n1	-51	-8	2	-2	-9	3	i	0
CCOC(=O)Nc1ccc2c(COC(=O)CNS(=O)(=O)c3cccc(Br)c3)cc(=O)oc2c1	·	-11	4	6	-3	6	i	-6
CCCN(C(=O)COc1ccc(Cl)cc1Cl)c1c(N)n(Cc2ccccc2)c(=O)[nH]c1=O	-26	·	-8	4	4	-10	i	-5
COc1ccc(-c2noc(CCC(=O)N3CCN(c4ccc(Br)cc4)CC3)n2)cc1	0	-17	4	·	·	-1	·	·
Cc1oc(-c2ccccc2F)nc1CS(=O)CC(=O)NCc1cccs1 (centres undefined)	6	-14	-4	-8	12	3	i	0
NC(=O)CS(=O)(=O)c1nc2ccccc2n1Cc1ccccn1	4	·	0	6	5	1	i	5
O=C1CC(c2ccccc2)CC(O)=C1C=NCc1ccccc1Cl (centres undefined)	·	0	3	84*	-13	-8	·	-11
O=C(O)c1ccccc1N/C=C\[N+](=O)[O-]	0	·	-1	4	4	7	i	26
CN(C)c1ccnc(SCc2ccccc2Cl)c1C#N	-17	-11	-2	16	-1	2	i	-4
O=C(NC(=S)NCc1ccc2c(c1)OCO2)c1ccccc1	·	-8	0	4	14	1	i	2
COc1c(OC2OC(C(=O)O)C(O)C(O)C2O)cc(O)c2c(=O)cc(-c3ccccc3)oc12 (centres undefined)	-5	-4	2	-18	8	8	i	-4
CCCCC(=O)N(C)c1c(C)nc2ccc(C(=O)Nc3cccc(OC)c3)cn12	-2	-10	-4	·	·	-1	·	·
NS(=O)(=O)c1ccc(CCNC(=O)c2cc(=O)[nH]c3ccccc23)cc1	-3	3	-3	-3	-2	5	i	-16
COC(=O)C1=CN(C)C=C(C(=O)OC)C1c1ccccc1Cl	·	-30	-4	-14	-9	-1	i	3
Cc1ccc(C)c(C(=O)CN2C(=O)NC3(CCC(C)CC3)C2=O)c1 (centres undefined)	4	-10	-5	12	0	-5	i	1
Cc1ccc(C(=O)NNC(=O)CCn2nnc3ccccc32)cc1	5	-6	-2	0	9	5	i	5

Looked up by structure from the list above, six records:
canonical_smiles	HIV Env fusion	UUG fidelity	MT1-MMP act inh	CSC inhib	PABP FP inh	MT1-MMP act inh RFP	Rce1 inh	eIF4H FP inh
NS(=O)(=O)c1ccc(CCNC(=O)c2cc(=O)[nH]c3ccccc23)cc1	-3	3	-3	-3	-2	5	i	-16
COc1c(OC2OC(C(=O)O)C(O)C(O)C2O)cc(O)c2c(=O)cc(-c3ccccc3)oc12 (centres undefined)	-5	-4	2	-18	8	8	i	-4
CCCCC(=O)N(C)c1c(C)nc2ccc(C(=O)Nc3cccc(OC)c3)cn12	-2	-10	-4	·	·	-1	·	·
O=C(NC(=S)NCc1ccc2c(c1)OCO2)c1ccccc1	·	-8	0	4	14	1	i	2
CN(C)c1ccnc(SCc2ccccc2Cl)c1C#N	-17	-11	-2	16	-1	2	i	-4
O=C1CC(c2ccccc2)CC(O)=C1C=NCc1ccccc1Cl (centres undefined)	·	0	3	84*	-13	-8	·	-11

Further results.
canonical_smiles	HIV Env fusion	UUG fidelity	MT1-MMP act inh	CSC inhib	PABP FP inh	MT1-MMP act inh RFP	Rce1 inh	eIF4H FP inh
CC1(C)CC(=O)C(C=Nc2cccnc2/N=C/C2=C(O)CC(C)(C)CC2=O)=C(O)C1	0	·	-17	10	21	-1	i	?
Cc1ccc(S(=O)(=O)N(C)c2ccc(OCC(=O)OCC(=O)N(CC#N)c3ccccc3)cc2)cc1	3	·	2	-8	·	-1	i	·
CCN(CC)CCCNC(=S)N1CCN(c2nc(-c3ccccc3)cs2)CC1	3	-1	-2	79*	7	-4	i	4
C[C@@H]1CN([C@H](C)CO)C(=O)c2cc(-c3ccc(C#N)cc3)cnc2O[C@H]1CN(C)C(=O)c1ccccc1	30	32&-7&-7	0	·	·	2	·	·
CCOC(=O)c1cc(C)nn1-c1nc(Cl)cc(OC)n1	-5	-17	1	-24	0	3	i	6
CCN(Cc1ccccc1)C(=O)Cn1c(=O)n(-c2ccc(OC)cc2OC)c(=O)c2c(C)c(C)sc21	-12	-7	-1	-7	-6	-5	i	-4
Cc1ccsc1C(=O)NNC(=O)Nc1ccc(Cl)c(Cl)c1	-75	-24	-6	-8	-5	-3	i	-1

Rows were taken by chance (roughly 2.9% active in at least one column).
